RecA splice inh – blocks M. tuberculosis RecA intein splicing; AID 2221; cell-free RecA intein splicing, fluorescence; 290,000 tested, 0.75% active; P9WHJ3; inhibition, %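 (about 9 µM by stock and volumes)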; in the data active = inhibition above about 30%; inconclusive = no clear call, values can overlap the other calls;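 also: 0% = vehicle wells and 100% = reference inhibitor control wells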
Target sequence (P9WHJ3 whole entry, looked up, canonical isoform): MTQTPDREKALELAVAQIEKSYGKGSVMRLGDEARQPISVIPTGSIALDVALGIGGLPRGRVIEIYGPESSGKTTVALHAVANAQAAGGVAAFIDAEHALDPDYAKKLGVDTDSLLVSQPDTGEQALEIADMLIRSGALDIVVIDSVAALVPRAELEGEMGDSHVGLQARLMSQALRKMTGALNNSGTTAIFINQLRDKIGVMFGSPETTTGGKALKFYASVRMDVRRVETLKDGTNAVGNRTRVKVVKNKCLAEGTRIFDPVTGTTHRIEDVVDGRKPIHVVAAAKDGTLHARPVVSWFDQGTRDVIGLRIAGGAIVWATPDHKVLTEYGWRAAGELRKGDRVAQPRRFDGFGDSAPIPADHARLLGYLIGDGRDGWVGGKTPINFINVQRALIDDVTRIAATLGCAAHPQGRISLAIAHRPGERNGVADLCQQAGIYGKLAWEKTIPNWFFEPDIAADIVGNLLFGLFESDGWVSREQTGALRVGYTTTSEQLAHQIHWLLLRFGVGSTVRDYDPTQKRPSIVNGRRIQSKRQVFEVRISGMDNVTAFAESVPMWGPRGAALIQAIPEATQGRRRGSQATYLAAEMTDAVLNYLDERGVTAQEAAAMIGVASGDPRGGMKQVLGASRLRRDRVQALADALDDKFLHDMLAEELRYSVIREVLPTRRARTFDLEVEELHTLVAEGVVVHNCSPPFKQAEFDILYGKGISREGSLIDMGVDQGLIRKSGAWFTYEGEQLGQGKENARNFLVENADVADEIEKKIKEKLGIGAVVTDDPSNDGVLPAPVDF
YopH inh – inhibitors of Yersinia enterocolitica YopH tyrosine phosphatase | inhibition, %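 (about 10 µM by stock and volumes)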 | fluorescence Ex485/Em525 | 140,000 tested, 0.16% active | AID 898;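 active = inhibition of 50% or more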;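 also: controls were vehicle for no effect and minimum signal wells for full effect; inactives centre near -20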
Mtb betalactam – beta-lactam sensitization of Mtb H37Rv | M. tuberculosis H37Rv growth with meropenem, percent inhibition; hits of this screen are not shown here | inhibition, % at 25 µM | 330,000 tested, 0.27% active;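 active = about 74% or more and at least 40 points above the plate without the antibiotic, then above 30% in a dose series; inconclusive = first-round hits that could not be retested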;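 also: growth measured after seven days incubation then overnight dye step; 0% = bacteria only wells and 100% = bacteria with antibiotic; twin plates without the antibiotic show which effects depend on it; some results filed as inactive read as strong as hits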
Mtb growth – M. tuberculosis H37Rv growth inhibitors, H37Rv strain (AID 1626); M. tuberculosis H37Rv growth inhibition; higher % means a stronger effect; inhibition, % at 10 µM, or IC50 in µM where a hit was titrated; 220,000 tested, 0.95% active;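 active = confirmed in a dose series; inconclusive = inhibition above 80% but not taken into the dose series; inactive = below 80% or under 30% at every dose of the series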;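 also: bacteria incubated seven days before Alamar blue readout; 0% = bacteria only wells and 100% = bacteria with antibiotic wells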
Arbovirus inh – blocks arbovirus infection; arbovirus infection cell-based antiviral screen; inhibition, % at 10 µM; 200,000 tested, 0.37% active; AID 1251;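 active = inhibition from about 30%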;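 also: bluetongue infection of BSR cells; cell survival read as ATP light after 72 h; 0% = infected wells without compound and 100% = uninfected wells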
Active calls of the source: *. This is a subset; count on the stated rates, not on these rows.

Results for O=C(CCC1CCCN(C(=O)C2=CCCC2)C1)N1CCN(c2ccccn2)CC1 (centres undefined) ?
RecA splice inh: 2.8; Mtb betalactam: 4; Mtb growth: 2%; Arbovirus inh: -3

Results for CC(Nc1ccc2c(c1)OCCO2)C(=O)Nc1ccc2c(c1)OCO2 (centres undefined) ?
RecA splice inh: -6.6; Mtb betalactam: 56; Mtb growth: -6%; Arbovirus inh: 5

How did CC(C)c1ccc(NC(=O)CN(Cc2ccccc2)S(C)(=O)=O)cc1 do in these assays?
RecA splice inh: 0.2; YopH inh: 33; Mtb betalactam: -1; Mtb growth: 3%; Arbovirus inh: -5

What do the screens show for `O=C1C2C3c4ccccc4C(c4ccccc43)[C@@H]2C(=O)N1c1ccccn1` (some centres undefined)?
RecA splice inh: -0.1; Mtb betalactam: 1; Mtb growth: 6%

Results for COCc1cc(C)n(CC(=O)N/N=C/c2ccc(-c3ccc(Cl)c(C(=O)O)c3)o2)c(=O)c1C#N ?
RecA splice inh: -1.8; YopH inh: -6; Mtb betalactam: 3; Mtb growth: 2%; Arbovirus inh: -7

What do the screens show for `CCCNC(=S)NC1CC2CCCC(C1)N2Cc1ccc(F)cc1` (centres undefined)?
RecA splice inh: -0.2; Mtb betalactam: 0

Results for CC1Oc2ccccc2OC1(O)c1ccc2ccccc2n1 (centres undefined) ?
RecA splice inh: 4.6; YopH inh: -51; Mtb betalactam: -7; Mtb growth: 8%; Arbovirus inh: 7

What do the screens show for `CCn1c(SCC(=O)NC2CC2)nnc1-c1csc(C)c1`?
RecA splice inh: 0.2; Mtb betalactam: 0

How did C=CCS/C(=N\n1cnc2ccccc2c1=O)N(CC)CC do in these assays?
RecA splice inh: -4.8; YopH inh: -26; Mtb betalactam: -3; Mtb growth: -3%; Arbovirus inh: 3

What do the screens show for `CC1CCc2nc(NC(=O)Nc3ccc4c(c3)OCO4)sc2C1` (centres undefined)?
RecA splice inh: 0.5; YopH inh: -21; Mtb betalactam: 1; Mtb growth: 9%; Arbovirus inh: -23

Results for CCc1nnc(NC(=O)C2CC(=O)N(CCc3ccc(F)cc3)C2)s1 (centres undefined) ?
RecA splice inh: -0.6; Mtb betalactam: -2

What do the screens show for `Cc1ccc(C)c(CN2C(=O)COc3ccc(C(=O)c4ccccc4C(=O)O)cc32)c1`?
RecA splice inh: 6.5; Mtb betalactam: 1; Mtb growth: 16%; Arbovirus inh: -12

Results for COc1ccc(CN(C)S(=O)(=O)c2nnc(NC(=O)c3ccccc3Br)s2)cc1 ?
RecA splice inh: -1.8; Mtb betalactam: 4

What do the screens show for `CC1=NN(c2ccccc2)C(=O)/C1=C/c1c(O)n(-c2ccc(F)cc2)[nH]c1=O`?
RecA splice inh: 19; YopH inh: -9; Mtb betalactam: 1; Mtb growth: 4%; Arbovirus inh: -18

How did C=CCOc1nc(-c2ccncc2)nc2ccccc12 do in these assays?
RecA splice inh: 1.7; YopH inh: -8; Mtb betalactam: 45; Mtb growth: 3%; Arbovirus inh: -6

What do the screens show for `O=C(c1ccc2c(c1)N(Cc1ccc(F)cc1)CCS2)N1CCC2(CC1)OCCO2`?
RecA splice inh: 7.1; Mtb betalactam: 4

Results for O=C(COc1ccccc1)N1CCN=C1SCc1ccccc1F ?
RecA splice inh: 8.3; Mtb betalactam: -7; Mtb growth: -9%

Results for CCOc1ccc(N2C(=O)CC(Sc3n[nH]c(-c4ccccc4)n3)C2=O)cc1 (centres undefined) ?
Mtb betalactam: -9; Mtb growth: -5%; Arbovirus inh: -1

How did Cc1nc(C)c(/C(O)=C\c2nc3ccc([N+](=O)[O-])cc3oc2=O)o1 do in these assays?
RecA splice inh: 0.1; Mtb betalactam: -4; Mtb growth: -6%

What do the screens show for `O=C(Nc1cccnc1)Nc1ccc(F)c(Cl)c1`?
RecA splice inh: 2.0; YopH inh: 7; Mtb growth: 13%; Arbovirus inh: 14

What do the screens show for `O=C(Nc1ccc(F)cc1F)N1CCCCCC1`?
RecA splice inh: 0.8; Mtb betalactam: 0

How did COc1ccc(-c2ccc(-c3nnc(-c4ccncc4)o3)cc2)cc1 do in these assays?
RecA splice inh: 0.8; YopH inh: -20; Mtb growth: 0%; Arbovirus inh: 1

How did CN1C(=O)C2(OCC(COc3ccc(Cl)cc3)O2)c2ccccc21 (centres undefined) do in these assays?
RecA splice inh: 7.0; YopH inh: 10; Mtb betalactam: 24; Mtb growth: 1%; Arbovirus inh: 4

Results for O=C1COc2ccc(C(=O)COC(=O)CNC(=O)C3CCCCC3)cc2N1 ?
RecA splice inh: -3.1; Mtb betalactam: -14; Mtb growth: -11%; Arbovirus inh: 9

Results for CC(=O)NC(CC(=O)OCC(=O)c1c(N)n(CC(C)C)c(=O)n(C)c1=O)c1ccccc1 (centres undefined) ?
RecA splice inh: 7.7; Mtb betalactam: -3

How did Cc1ccc(C(=O)NC2CC3CCC(C2)N3)cc1 (centres undefined) do in these assays?
RecA splice inh: -1.8; Mtb betalactam: 2; Mtb growth: -2%; Arbovirus inh: 4

How did O=S(=O)(NCc1ccco1)N1CCCCCC1 do in these assays?
RecA splice inh: -1.0; YopH inh: -3; Mtb betalactam: -6; Mtb growth: -13%; Arbovirus inh: 0

Results for COc1ccc(S(=O)(=O)Nc2ccc(N3CCOCC3)cc2)cc1Br ?
RecA splice inh: -2.7; YopH inh: -2; Mtb betalactam: -4; Mtb growth: -10%; Arbovirus inh: -2

How did CCCC(=O)Nc1ccc(Cc2ccc(NC(=O)CCC)c(C(=O)O)c2)cc1C(=O)O do in these assays?
RecA splice inh: -4.7; Mtb betalactam: -3; Mtb growth: -3%; Arbovirus inh: 14

What do the screens show for `O=C(CN1C(=O)CSc2ccc(S(=O)(=O)N3CCOCC3)cc21)NCc1cccnc1`?
RecA splice inh: -16; Mtb betalactam: -4; Mtb growth: 2%; Arbovirus inh: 16

What do the screens show for `CCn1nc(C)cc1C(=O)NC1CC(C)(C)Cc2c1cnn2-c1cccc(F)c1` (centres undefined)?
RecA splice inh: 5.1; Mtb betalactam: inconclusive

Results for O=C(Nc1nncs1)c1cccc(S(=O)(=O)N2CCc3ccccc32)c1 ?
RecA splice inh: 0.2; Mtb betalactam: 5; Mtb growth: 4%; Arbovirus inh: 2

What do the screens show for `Cc1[nH]c2ccccc2c1C(c1ccccn1)N1CCCC1` (centres undefined)?
RecA splice inh: -4.5; Mtb betalactam: -6; Mtb growth: 2%; Arbovirus inh: 8

How did O=C(O)c1ccc[nH]c1=S do in these assays?
RecA splice inh: -1.0; Mtb betalactam: 8; Mtb growth: -2%

What do the screens show for `O=C(O)c1cc2ccc3cccc4ccc(c1)c2c34`?
RecA splice inh: -2.9; Mtb betalactam: 12

Results for Cc1cccc(N2CCN(CCNC(=O)c3cc4c(s3)CS(=O)(=O)C4)CC2)c1C ?
YopH inh: -17; Mtb betalactam: -3; Mtb growth: 2%; Arbovirus inh: 0

What do the screens show for `Cc1ccc2nc(-c3ccc(N4C(=O)CC(N5CCCC(C)C5)C4=O)cc3)sc2c1` (centres undefined)?
YopH inh: -11; Mtb growth: -3%; Arbovirus inh: 19

How did Cc1ccc(N2CC(C(=O)Nc3cc(C(F)(F)F)ccc3N3CCCC3)CC2=O)cc1 (centres undefined) do in these assays?
RecA splice inh: 1.2; Mtb betalactam: -5

What do the screens show for `Cc1ccc2[nH]c(=O)c(CN(C)C(=O)c3ccccn3)cc2c1`?
RecA splice inh: -0.6; YopH inh: -1; Mtb betalactam: 36; Mtb growth: -8%; Arbovirus inh: 1

How did O=C(CCNS(=O)(=O)c1cccc2nsnc12)NCc1ccco1 do in these assays?
RecA splice inh: 0.7; Mtb betalactam: 3; Mtb growth: 3%; Arbovirus inh: -2

Compounds shown so far with a thiophene ring, fused or not:
What do the screens show for `CCn1c(SCC(=O)NC2CC2)nnc1-c1csc(C)c1`?
RecA splice inh: 0.2; Mtb betalactam: 0

Results for Cc1cccc(N2CCN(CCNC(=O)c3cc4c(s3)CS(=O)(=O)C4)CC2)c1C ?
YopH inh: -17; Mtb betalactam: -3; Mtb growth: 2%; Arbovirus inh: 0

The listing picks up with the 2 entries that preceded the break.
What do the screens show for `Cc1ccc2[nH]c(=O)c(CN(C)C(=O)c3ccccn3)cc2c1`?
RecA splice inh: -0.6; YopH inh: -1; Mtb betalactam: 36; Mtb growth: -8%; Arbovirus inh: 1

How did O=C(CCNS(=O)(=O)c1cccc2nsnc12)NCc1ccco1 do in these assays?
RecA splice inh: 0.7; Mtb betalactam: 3; Mtb growth: 3%; Arbovirus inh: -2

What do the screens show for `Cc1nn(C)c(Cl)c1C(=O)NCC(=O)O`?
RecA splice inh: 2.8; Mtb betalactam: 0; Mtb growth: 5%; Arbovirus inh: 6

What do the screens show for `S=C(NC1CCCCC1)NC1CC2CCC(C1)N2Cc1ccccc1` (centres undefined)?
RecA splice inh: 0.5; Mtb betalactam: -8; Mtb growth: 4%; Arbovirus inh: 2

How did Cc1nn(-c2ccccc2)c2sc(C(=O)N3CCCCC3)cc12 do in these assays?
RecA splice inh: 2.4; YopH inh: 0; Mtb betalactam: 16; Mtb growth: 5%; Arbovirus inh: -5

Results for COc1ccc2c(c1)c(CCN)c(C)n2Cc1ccccc1 ?
RecA splice inh: 0.4; Mtb betalactam: -4; Mtb growth: 10%

What do the screens show for `CS(=O)(=O)N1CCC(Oc2ccccc2C(=O)N2CCCCC2CO)CC1` (centres undefined)?
RecA splice inh: 48*; Mtb betalactam: 0; Mtb growth: 1%; Arbovirus inh: -4

What do the screens show for `Cc1ccccc1OCC(=O)Nc1nnc(S(=O)(=O)N2CCCC2)s1`?
RecA splice inh: -2.1; Mtb betalactam: 1

What do the screens show for `Cc1cc(NC(c2cccnc2)c2ccc3cccnc3c2O)no1` (centres undefined)?
RecA splice inh: -3.6; YopH inh: -70; Mtb betalactam: 47; Mtb growth: -10%; Arbovirus inh: -39

How did CC(C)(C)c1csc(Sc2ccc([N+](=O)[O-])cn2)n1 do in these assays?
RecA splice inh: 32*; Mtb betalactam: 39; Mtb growth: 4%

Results for O=C(CCCCCN1C(=O)c2ccccc2C1=O)Nc1ccc2c(c1)OCCO2 ?
RecA splice inh: 1.6; YopH inh: 13; Mtb betalactam: -13; Mtb growth: 3%; Arbovirus inh: 5

Results for COc1cc(NC(=O)CN2CCCCC2C)c(C)cc1[N+](=O)[O-] (centres undefined) ?
RecA splice inh: 2.3; YopH inh: -19; Mtb betalactam: 7; Mtb growth: -7%; Arbovirus inh: -7

What do the screens show for `O=C(Nc1ccccc1)N1CC2CC(C1)c1cccc(=O)n1C2` (centres undefined)?
RecA splice inh: 0.4; Mtb betalactam: -8; Mtb growth: -4%; Arbovirus inh: 1

Results for CCc1nc(OCC(=O)c2ccccc2)c(C#N)c2c1COC(C)(C)C2 ?
RecA splice inh: 2.0; YopH inh: -12; Mtb betalactam: 10; Mtb growth: 0%; Arbovirus inh: -3

Results for CCOc1ccccc1-n1c(SCC(=O)Nc2ccc(CC)cc2)nc2n[nH]c(C)c2c1=N ?
RecA splice inh: 1.6; YopH inh: -14; Mtb betalactam: 95; Mtb growth: 4%; Arbovirus inh: -23

How did O=C(C1CCC(CNc2c(N3CCCCC3)c(=O)c2=O)CC1)N1CCCC1 (centres undefined) do in these assays?
RecA splice inh: 1.0; Mtb betalactam: 4; Mtb growth: -4%

How did CCCCCCCC(=O)Nc1ccc(C(=O)N/N=C/c2cccc([N+](=O)[O-])c2)cc1 do in these assays?
RecA splice inh: -0.3; YopH inh: -36; Mtb betalactam: -13; Mtb growth: -10%; Arbovirus inh: -32

What do the screens show for `CC(=O)OCc1c(C(F)(F)F)nn(C)c1Sc1ccccc1`?
RecA splice inh: 2.4; YopH inh: -30; Mtb betalactam: 5; Mtb growth: -5%; Arbovirus inh: 2

What do the screens show for `COc1ccc(N(CC(=O)N2CCOCC2)S(C)(=O)=O)cc1`?
RecA splice inh: 1.3; Mtb betalactam: 3

How did CCC(CC)C(=O)Nc1c2c(nn1-c1ccc(OC)cc1)CS(=O)(=O)C2 do in these assays?
RecA splice inh: 0.6; YopH inh: -40; Mtb betalactam: -1; Mtb growth: 5%; Arbovirus inh: 13

Results for Cc1ccc(CSC2=Nc3sccc3C3=NC(=O)CN23)cc1 ?
RecA splice inh: -1.8; YopH inh: -1; Mtb betalactam: 6; Mtb growth: 1%; Arbovirus inh: 3

Results for COc1ccccc1CNC(=O)c1ccc(S(=O)(=O)N2CCCC2)cc1 ?
RecA splice inh: 0.9; YopH inh: -22; Mtb betalactam: -7; Mtb growth: 4%; Arbovirus inh: 5

Results for COc1ccc(C(=O)OCC(=O)c2cc(OC)ccc2OC)c(OC)c1 ?
RecA splice inh: 0.6; YopH inh: -33; Mtb betalactam: -6; Mtb growth: 0%; Arbovirus inh: -4

Looked up one by one from above:
Results for CCc1nnc(NC(=O)C2CC(=O)N(CCc3ccc(F)cc3)C2)s1 (centres undefined) ?
RecA splice inh: -0.6; Mtb betalactam: -2

What do the screens show for `O=C(CN1C(=O)CSc2ccc(S(=O)(=O)N3CCOCC3)cc21)NCc1cccnc1`?
RecA splice inh: -16; Mtb betalactam: -4; Mtb growth: 2%; Arbovirus inh: 16
